# PINK1 expr mod – changes PINK1 expression | PINK1 immunofluorescence, high-content cytometry, 24 h | Potency, µM (titrated, usually from 76.6 µM), without a hit: top-dose activation (PINK1 increase), actives largely listed as activators | hit rate 0.2% among 410,000; active = well fitted activation curve with a large enough effect; inconclusive = small, poorly fitted or top-dose-only effect; inactive = flat fitted curve, though single readings scatter; cell line not stated here;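 further: potency means the concentration at half of the fitted maximal effect; % of control where 0% means no effect; nearly all actives have a fitted effect of over 65% in size; a mitochondrial uncoupler was the plate control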
#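 PINK1 protein level read as immunofluorescence by microplate cytometer in a fixed, stained stable cell line after 24 h exposure to five compound concentrations, with CCCP as control.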
# TRPML1 inh – human mucolipin-1 channel inhibition; Q9GZU1; TRPML1-inducible cells, Ca2+ dye fluorescence, FDSS; stronger effect = lower value; inhibition of EC80 agonist-evoked calcium signal; activity change, negative = inhibition, % (no concentration beside the values); hit rate 0.02% among 390,000; AID 624415; in the data active means activity change below about -50%; inconclusive means about -30% to -50%; inactive means above about -30%;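 further: stimulus is agonist 54-4 at its EC80 concentration; on the % scale 0 is the no-effect control and ±100 the full control effect; compound concentration not given in the record; the text of the record puts the active cut at -80%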
# Target sequence (Q9GZU1 whole entry, looked up): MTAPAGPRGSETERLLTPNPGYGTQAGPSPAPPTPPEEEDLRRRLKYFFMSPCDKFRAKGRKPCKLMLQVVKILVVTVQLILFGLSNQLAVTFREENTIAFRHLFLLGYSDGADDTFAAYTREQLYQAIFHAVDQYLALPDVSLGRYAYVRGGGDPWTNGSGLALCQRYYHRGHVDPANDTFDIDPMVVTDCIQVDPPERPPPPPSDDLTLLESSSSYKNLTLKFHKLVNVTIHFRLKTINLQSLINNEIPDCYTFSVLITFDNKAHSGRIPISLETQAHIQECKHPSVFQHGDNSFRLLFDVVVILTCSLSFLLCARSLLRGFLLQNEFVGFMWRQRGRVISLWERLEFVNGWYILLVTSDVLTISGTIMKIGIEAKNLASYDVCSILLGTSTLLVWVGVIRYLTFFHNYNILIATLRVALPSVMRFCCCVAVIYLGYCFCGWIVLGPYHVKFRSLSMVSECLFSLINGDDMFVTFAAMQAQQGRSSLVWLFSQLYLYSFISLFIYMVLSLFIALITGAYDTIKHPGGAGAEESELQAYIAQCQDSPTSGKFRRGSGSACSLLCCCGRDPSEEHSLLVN
#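 Calcium fluorescence in TRPML1-DL cells induced overnight with Tet: a 110 s read after compound pin addition, then a 110 s antagonist read after challenge with 54-4 at 4 uM final (EC80).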
# TRPML1 ag – agonists of human TRPML1 channel | TRPML1-expressing cells, Ca2+ dye fluorescence, FDSS; host cell line not named in the record; reference of the full effect not given here | Q9GZU1 | hit rate 0.12% among 410,000 | activation, % (no concentration beside the values); in the data active = activation above about 50%; inconclusive = about 30% to 50%; inactive = below about 30%; further: 0% is about no effect; the text of the record puts the active cut at 80%
#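 In this qHTS format, compounds were pin-transferred onto Ca8-dye-loaded TRPML1-DL cells induced with Tet overnight, and intracellular Ca2+ fluorescence was recorded kinetically for 110 s after a 10 s baseline. A subsequent 4uM final 54-4 (EC80) addition followed by a second 110 s read served as the antagonist phase.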
# TRPV1 potentiator – potentiators of human vanilloid receptor 1 (TRPV1). hit rate 0.02% among 320,000. TRPV1-expressing cells, Fluo-8 calcium influx, capsaicin EC20 potentiation; host cell line not named in the record; control for the full effect not named in the record. Q8NER1. potentiation, % at 8.33 µM; active means potentiation above 80%; inconclusive means 30% to 80%; inactive means below 30%; further: 0% is about no effect
#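 TRPV1-expressing cells were cultured overnight at 35.5C and loaded with Fluo-8 calcium dye for 40 to 90 min at room temperature. After a 10 s baseline, compound was added and calcium influx was read kinetically for 3 min (ex 480/em 520 nm).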
# ClpP mod – qHTS Assay for Activators of ClpP | hit rate 1.9% among 340,000 | Potency, µM (doses to about 57.5 µM), inactives show at the highest dose activity change, negative = active | AID 651965, 2013 | purified B. subtilis ClpP, FRET peptide cleavage, 20 min | ATP-dependent Clp protease proteolytic subunit (Bacillus subtilis (strain 168)), P80244; active = well fitted falling curve with a large enough effect; inconclusive = small, poorly fitted or top-dose-only effect; inactive = no such curve, though single readings can be large or run the other way; further: potency means the concentration at half of the fitted maximal effect; the source files actives as falling curves though it sought activators and does not explain the sign; nearly all actives have a fitted effect of over 65% in size; many hits overshoot -100%
# Target sequence (P80244 whole entry, looked up): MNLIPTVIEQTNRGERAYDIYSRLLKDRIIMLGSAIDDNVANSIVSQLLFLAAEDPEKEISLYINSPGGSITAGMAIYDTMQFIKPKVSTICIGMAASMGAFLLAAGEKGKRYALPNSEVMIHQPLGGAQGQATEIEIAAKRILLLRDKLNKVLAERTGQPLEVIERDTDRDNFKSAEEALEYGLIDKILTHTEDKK
#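 FRET quenching reversal measured ClpP activation: 10 microg/mL B. subtilis ClpP at pH 8 with the FRET-FV decapeptide, read at 430 nm after 320 nm excitation. The 20-min minus 0-min signal was scaled between DMSO/no-enzyme wells and ADEP (5.8 microM final).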
# Menin-MLL FL inh – displaces fluorescein MLL peptide from human menin. AID 1766. FP activity change, % at 61.4 µM. Fluorescence polarization, fluorescein-MLL peptide displacement from menin. 290,000 tested, under 10 active; inconclusive = falling polarisation curve, or a change in total fluorescence; inactive = total fluorescence flat and polarisation flat or rising; no compound was filed as active; the % refers to the polarisation; negative = inhibition;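 further: % of control where 0% means no effect; inhibitors lower the polarisation; unlabelled MLL peptide was the positive control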
# Sfp inh – blocks B. subtilis Sfp PPTase activity; AID 1490; hit rate 3.5% among 310,000; Potency, µM, for the others: max response, negative = inhibition, usual class: inhibitors; Biochemical Sfp PPTase activity, qHTS; active means well fitted inhibition curve with a large enough effect; inconclusive means small, poorly fitted or top-dose-only effect, or another doubt; inactive means no such curve, though single readings can be large or run the other way;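 further: the enzyme is Sfp with the accession as filed and its product quenches rhodamine fluorescence; potency means the concentration at half of the fitted maximal effect; 0% = enzyme reaction without inhibitor and -100% = no enzyme wells; top concentration of the series not given in the record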
#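 Fluorescence-quenching assay: 15 nM Sfp-PPTase preincubated 15 min at room temperature with compound, then 5 uM rhodamine-CoA and 12.5 uM BHQ-2-labelled YbbR peptide added. Fluorescence (ex 525/em 598 nm) read at start and after 30 min; difference gives rate.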
# * = called active by the depositor; ? = inconclusive; . = no result given; & = joins results of further samples; [ ] = another dose, or the depositor's remark.
# The line under a structure holds: PINK1 expr mod	TRPML1 inh	TRPML1 ag	TRPV1 potentiator	ClpP mod	Menin-MLL FL inh	Sfp inh
O=C(CCC(=O)N1CCSc2ccccc21)NCc1ccccc1Cl
  4.1%	19	-0.1	.	1.5%	.	.
CCN(C(=O)CSc1nnc(SC(C)C)s1)C1CCS(=O)(=O)C1 (configuration not stated)
  0.6%	-1	-0.5	14	2.0%	.	.
CN(CC(=O)NCCN1CCN(c2ccccc2)CC1)S(=O)(=O)c1ccc2c(c1)CCC(=O)N2
  2.7%	14	-0.6	-11	2.6%	3.1	13%
COc1cc(C(=O)NCC(=O)NC(C)c2ccc(-n3ccnc3)cc2)cc(OC)c1OC (configuration not stated)
  1.1%	8	0.0	-5	-6.4%	.	.
O=C(CC1CCCCC1)N=C1SC2CS(=O)(=O)CC2N1c1ccccc1 (configuration not stated)
  1.8%	41	0.8	2	0.8%	.	12%
Cc1cccc(OC(C)C(=O)Nc2ccc(N3CCCCC3)cc2)c1 (configuration not stated)
  ?	8	0.9	9	-9.7%	.	.
N#Cc1ccc(NC(=O)COC(=O)CNC(=O)C2CCCCC2)cc1
  0.0%	-18	-0.2	?	-0.2%	0.3	14%
COc1ccc(N(C(=O)c2cc3ccccc3oc2=O)C2C=CS(=O)(=O)C2)cc1 (configuration not stated)
  3.8%	-4	-0.5	15	.	1.5	14%
C=C(C)COc1ccc(-c2nc(N)nc(C)c2Oc2ccccc2OC)c(O)c1
  5.7%	6	2.4	1	3.7%	-0.7	12%
O=c1[nH]cnc2c1sc1nc(C(F)F)cc(-c3ccccc3)c12
  1.3%	-22	-0.6	-27	?	.	.
CCOC(=O)c1ccc(CN2C(=O)c3ccccc3S2(=O)=O)cc1
  0.1%	2	0.1	14	.	2.5	8%
COc1ccc(OC)c(C2=NOC(C(=O)Nc3ccc4c(c3)OCCO4)C2)c1 (configuration not stated)
  -0.2%	55	1.1	-1	-15%	-5.1	23%
O=c1cc(N2CCCCCC2)[nH]c(=O)n1-c1ccc(Cl)cc1
  0.7%	6	-0.3	-1	-0.7%	3.2	13%
CS(=O)(=O)n1nc(-c2ccco2)nc1N
  2.3%	0	-0.2	2	.	3.6	24%
CCC(=NN=C(CC)c1ccccc1O)c1ccccc1O
  11%	5	2.6	.	-0.9%	.	.
S=c1[nH]cc(-c2ccccc2)[nH]1
  -0.4%	5	-0.5	-5	3.7%	0.0	-2%
CN(C)/C=C1/Nc2ccccc2C1=O
  -1.7%	-8	2.5	27	-15%	1.0	?
CCOC(=O)c1cc(C(=O)c2cccs2)n2ccc(C(C)=O)cc12
  -1.9%	-18	-0.9	-3	-25%	2.0	-4%
Cc1c(-c2csc(N)n2)c2ccccc2n1C
  0.4%	9	3.9	-3	.	1.7	14%
O=C(Cn1nc(-c2ccc(Cl)cc2)ccc1=O)NCCN1CCOCC1
  -0.2%	3	-1.0	.	-11%	1.4	8%
CSc1ccc(C(C(C(=O)c2cccs2)N2CCOCC2)N2CCOCC2)cc1 (configuration not stated)
  -2.5%	15	1.3	-12	0.2%	-10	10%
O=C(NCc1ccco1)C1CC(=O)N(CCc2ccccc2)C1 (configuration not stated)
  -0.6%	0	-0.3	-9	-1.0%	5.8	-7%
CC(C)N(C)C(=O)C(=O)c1cccn1-c1cccc(Cl)c1C#N
  -2.0%	9	-0.2	-3	-1.7%	-0.8	16%
C=CCN1C(=S)N[C@@H]2CS(=O)(=O)C[C@@H]21
  0.5%	3	0.2	-4	1.7%	0.1	-7%
CCCCCNC(=O)N[C@H](C(=O)O)C(C)C
  4.8%	19	0.5	3	0.9%	-12	7%
Cc1nn(Cc2c(Cl)cccc2Cl)c(Cl)c1/C=C/C(=O)OCC(=O)NCC(F)(F)F
  2.1%	-7	-1.0	17	-1.5%	-4.3	7%
O=C(NC1CCCC1)C(c1ccco1)N(C(=O)c1ccco1)c1ccccc1 (configuration not stated)
  1.3%	8	1.1	3	.	.	7%
CCOc1ccc2nc(NS(=O)(=O)c3ccc4c(c3)n(C)c(=O)n4C)sc2c1
  20%	-2	-0.7	3	-1.7%	-2.4	-1%
Cc1nc2cc3nc(C)sc3cc2s1
  0.8%	-28	-0.6	2	-0.9%	3.9	40µM*
COc1ccc(N=Nc2cnc(C)nc2-c2ccccc2)cc1
  9.8%	27	2.4	-7	-1.6%	2.0	-25%

# The last three compounds of the section above open the next one:
# The line under a structure holds: PINK1 expr mod	TRPML1 inh	TRPML1 ag	TRPV1 potentiator	ClpP mod	Menin-MLL FL inh	Sfp inh
CCOc1ccc2nc(NS(=O)(=O)c3ccc4c(c3)n(C)c(=O)n4C)sc2c1
  20%	-2	-0.7	3	-1.7%	-2.4	-1%
Cc1nc2cc3nc(C)sc3cc2s1
  0.8%	-28	-0.6	2	-0.9%	3.9	40µM*
COc1ccc(N=Nc2cnc(C)nc2-c2ccccc2)cc1
  9.8%	27	2.4	-7	-1.6%	2.0	-25%
CCc1cccc(NC(=O)CCCN2C(=O)C(c3ccccc3)Oc3cccnc32)c1 (configuration not stated)
  -0.1%	28	2.3	24	-0.4%	.	12%
CCOC(=O)c1cc2c3ccccc3n(CC)c2nc1N
  -3.2%	-5	2.0	4	16µM*	-0.5	-1%
O=C(C[C@@H]1C/C=C\C[C@H](NC(=O)OCC2c3ccccc3-c3ccccc32)C(=O)OC[C@@H]2CCCN2C1=O)NCCO
  0.2%	-11	0.4	.	-11%	.	.
CCOC(=O)N1CCc2c(sc3c2c(=O)n(CCc2ccccc2)c(=O)n3CC(=O)Nc2cccc(C)c2)C1
  3.1%	-27	-0.5	.	-1.3%	.	.
CCOc1ccc(-c2c(C(=O)N/N=C/c3cccs3)nnn2-c2nonc2N)cc1
  -1.4%	37	1.6	-6	-5.3%	.	-2%
Cc1cc(C)c2c(CC(=O)O)coc2c1
  -1.0%	12	1.3	1	2.0%	7.0	-11%
CCC(c1nnnn1-c1ccc2c(c1)OCCO2)N1CCN(CC)CC1 (configuration not stated)
  -0.1%	.	-0.5	.	5.2%	.	.
O=c1c2cc3c(nc2ncn1Cc1ccc(Cl)cc1)CCCC3
  -0.6%	-13	-1.1	.	-8.5%	.	.
N#C/C(=C/Nc1ccccc1C(=O)O)C(N)=O
  0.6%	-21	0.0	-4	-3.2%	0.5	4%
Cc1ccn2c(=O)c(C(=O)NCCc3ccccc3)c(O)nc2c1
  1.9%	54	-0.7	.	-15%	.	.
COCC1CCN(C(=O)C2CCC(=O)N(CC3CCCCC3)C2)CC1 (configuration not stated)
  -1.7%	-3	-0.9	12	1.5%	.	19%
CCC1CN(C(=O)N2CCC(C(=O)Nc3ccccc3F)CC2)c2ccccc2O1 (configuration not stated)
  0.7%&1.7%	-10&4	-0.7&4.5	3	-2.2%&-0.6%	.	21%
N#Cc1nc(COc2ccc(Cl)cc2Cl)oc1N1CCN(c2ccccc2)CC1
  3.7%[38.3 µM]	26	0.7	-1	-0.4%	2.0	22%
COC(CNC(=O)c1ccc2c(c1)nc(C)n2-c1ccc(F)c(F)c1)OC
  7.8%[38.3 µM]	16	0.2	27	-3.6%	4.7	-15%
O=C(O)c1cccc2c1Oc1ccccc1S2(=O)=O
  0.2%	2	-0.6	.	1.1%	.	.
O=C(CCCn1c(SCc2cc(=O)n3cc(Cl)ccc3n2)nc2ccccc2c1=O)NCC1CCCO1 (configuration not stated)
  -0.1%	-2	0.6	6	-9.1%	-1.8	9%
CC(C)(C)SCCNC(=O)c1ccc(CN2CCc3ccccc3C2)cc1
  0.1%	-12	-1.7	9	-1.1%	0.8	-1%
CC[C@@]12C(=O)N(c3ccc(C)cc3)C(=O)N1[C@H](c1ccc(OC)cc1)[C@@H]1C(=O)N(C(C)(C)C)C(=O)[C@@H]12
  0.3%	4	-0.3	-6	-0.5%	0.9	14%
CCC(=O)Nc1cc(=O)[nH]c2ncnn12
  -3.6%	-4	0.1	-3	-1.7%	4.1	9%
COc1cc(Cl)c(C)cc1NC(C)C(=O)Nc1cc(C(F)(F)F)ccc1N1CCOCC1 (configuration not stated)
  6.6%	-16	0.3	-24	-1.9%	6.1	-19%
COc1ccc(-c2nnn(CC(=O)N(Cc3ccccc3Cl)C(C(=O)NCC3CCCO3)c3ccco3)n2)cc1 (configuration not stated)
  4.7%	-7	-0.3	-2	1.0%	0.6	14%
COc1cc(-c2cc(C(=O)NCc3ccco3)c3ccccc3n2)cc(OC)c1OC
  4.4%	-17	-0.7	10	0.2%	3.9	-14%
CN(CCc1ccccn1)C(=O)c1cccnc1Oc1ccc(Cl)cc1
  -1.5%	-23	1.0	-18	.	2.2	21%
CCOc1ccc(CCN2C(=O)c3ccc(C(=O)O)cc3C2=O)cc1OCC
  -0.5%	-5	0.5	-19	-0.3%	-1.4	0%
CCN1CCN(C/C(C)=C/c2ccccc2)CC1
  1.7%	-6	0.4	1	0.5%	4.5	-5%
COc1ccc(OC)c(NC(=O)c2cc(S(=O)(=O)N(C)C)ccc2N2CCCC2)c1
  -0.3%	19	2.8	-2	-6.3%	.	.
O=C(NCc1nnc(SCC(=O)N2CCCCC2)o1)c1c(F)cccc1Cl
  0.6%	-6	-0.9	12	-0.7%	.	11%
COc1ccc(C(=O)NC2CCN(C(=S)Nc3cccc(C)c3C)CC2)cc1
  6.2%	-19	3.3	16	1.1%	1.1	13%
O=C(Nc1nnc(/N=C/c2ccco2)s1)c1ccc(F)cc1
  -1.0%	2	-0.5	-3	-1.3%	5.1	10%
CC(C(=O)N1CCCCCC1)c1ccc([N+](=O)[O-])cc1 (configuration not stated)
  -0.6%	18	-0.2	-1	-1.5%	0.1	6%
Cc1cc(O)cc(O)c1C(=O)Cc1cnn(-c2ccccc2)c1
  0.3%	10	1.8	-1	-0.6%	-3.1	-17%
Cc1ccccc1-n1c(C)cc(/C=C2\NC(=O)NC2=O)c1C
  -2.6%[38.3 µM]	-3	0.7	1	-9.5%	-2.1	-26%

# Screening data from PubChem.
